Screening data deposited in PubChem by National Center for Advancing Translational Sciences (NCATS).
TRPML1 ag: activates the human TRPML1 channel; Q9GZU1; TRPML1-expressing cells, Ca2+ dye fluorescence, FDSS; host cell line not named in the record; reference of the full effect not given here; activation, % (test concentration not listed); 410,000 tested, 0.12% active; AID 624414; in the data active = activation above about 50%; inconclusive = about 30% to 50%; inactive = below about 30%; further: 0% is about no effect; the text of the record puts the active cut at 80%
Target sequence (Q9GZU1 whole entry, looked up): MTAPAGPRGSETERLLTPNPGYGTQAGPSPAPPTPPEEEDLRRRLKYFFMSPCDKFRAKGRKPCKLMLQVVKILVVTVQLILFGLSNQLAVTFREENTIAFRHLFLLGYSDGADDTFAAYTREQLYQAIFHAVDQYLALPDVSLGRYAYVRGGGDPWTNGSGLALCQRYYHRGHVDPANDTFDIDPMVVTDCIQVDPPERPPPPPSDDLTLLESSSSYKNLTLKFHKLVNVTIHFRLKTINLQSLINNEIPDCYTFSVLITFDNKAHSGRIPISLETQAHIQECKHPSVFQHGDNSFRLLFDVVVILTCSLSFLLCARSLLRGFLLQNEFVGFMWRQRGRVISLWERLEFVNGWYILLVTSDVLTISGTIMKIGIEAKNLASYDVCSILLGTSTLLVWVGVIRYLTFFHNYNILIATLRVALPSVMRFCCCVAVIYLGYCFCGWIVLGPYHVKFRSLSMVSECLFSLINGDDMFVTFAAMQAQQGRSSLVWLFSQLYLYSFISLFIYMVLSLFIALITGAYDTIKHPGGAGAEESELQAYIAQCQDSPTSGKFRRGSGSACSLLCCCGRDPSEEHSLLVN
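Tet-induced TRPML1-DL cells, 1,500 per well, cultured overnight, were loaded with a no-wash Ca2+ dye for 45–90 min. Calcium fluorescence was recorded on the FDSS for 110 s after compound addition, before the EC80 agonist (4 uM 54-4) was added.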
CtBP-E1A inh: inhibitors of CtBP/E1A interaction; AlphaScreen GST-E1A/His-CtBP binding, 1536-well; hits give low values; control for the full effect not named in the record; activity change, % (no concentration beside the values); 340,000 tested, 0.49% active; in the data active means activity change below about -65%; inconclusive means about -30% to -65%; inactive means above about -30%; further: on the % scale 0 is the no-effect control and ±100 the full control effect; compound concentration not given in the record
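AlphaScreen with 125 nM GST-E1A and 125 nM His-CtBP (5X stocks) in Tris pH 8.0, 300 mM NaCl, BSA, Tween 20, TCEP. Compounds preincubated 2 h at 37 deg C, then glutathione donor/nickel acceptor beads added for 1 h at 37 deg C in dark.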
D2 agonist: agonists of human D2 dopamine receptor (beta-arrestin). P14416. AID 624465. 360,000 tested, 0.084% active. activation, % (test concentration not listed). DiscoveRx PathHunter D2 beta-arrestin, luminescence, 90 min; 100% = 57 uM dopamine signal; in the data active = activation above about 40%; inconclusive = about 15% to 40%; inactive = below about 15%; further: compound concentration not given in the record; the text of the record calls up to 30% inactive
Target sequence (P14416 whole entry, looked up): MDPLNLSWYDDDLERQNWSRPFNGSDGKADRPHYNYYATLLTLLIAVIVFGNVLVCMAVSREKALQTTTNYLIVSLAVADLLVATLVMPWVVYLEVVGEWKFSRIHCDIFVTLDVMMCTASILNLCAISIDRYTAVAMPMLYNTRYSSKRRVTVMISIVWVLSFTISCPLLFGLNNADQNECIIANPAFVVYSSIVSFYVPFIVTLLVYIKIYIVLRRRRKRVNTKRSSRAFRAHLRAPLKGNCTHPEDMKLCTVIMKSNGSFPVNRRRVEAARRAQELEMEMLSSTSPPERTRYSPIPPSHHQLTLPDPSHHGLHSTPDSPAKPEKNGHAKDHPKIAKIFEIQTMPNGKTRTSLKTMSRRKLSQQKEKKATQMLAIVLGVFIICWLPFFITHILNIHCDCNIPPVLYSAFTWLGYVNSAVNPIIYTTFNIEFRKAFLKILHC
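Agonist mode: compounds alone added to overnight-plated D2 PathHunter cells for 90 min at 37 C, with 57 uM final dopamine (EC100) defining full response. Beta-arrestin recruitment detected by chemiluminescent reagent, read after 1 h at ambient temperature.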
TRPML1 blocker: inhibitors of human TRPML1 channel; Q9GZU1; TRPML1-inducible cells, Ca2+ dye fluorescence, FDSS; hits give low values; inhibition of EC80 agonist-evoked calcium signal; activity change, negative = inhibition, % (test concentration not listed); 390,000 tested, 0.02% active; in the data active means activity change below about -50%; inconclusive means about -30% to -50%; inactive means above about -30%;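 further: stimulus is agonist 54-4 at its EC80 concentration; on the % scale 0 is the no-effect control and ±100 the full control effect; compound concentration not given in the record; the text of the record puts the active cut at -80%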
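Tet-induced TRPML1-DL cells loaded with Ca8 no-wash calcium dye were read kinetically on FDSS. Compound addition was followed by EC80 agonist 54-4 (4 uM final); inhibition was read over 110 s.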
PINK1 expr mod: modulators of PINK1 expression | Potency, µM (doses to about 76.6 µM), for inactives: at the top dose activation (PINK1 increase), usual class: activators | PINK1 immunofluorescence, high-content cytometry, 24 h | 410,000 tested, 0.2% active | AID 624263; active = well fitted activation curve with a large enough effect; inconclusive = small, poorly fitted or top-dose-only effect; inactive = flat fitted curve, though single readings scatter; cell line not stated here;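 further: potency means the concentration at half of the fitted maximal effect; % of control where 0% means no effect; nearly all actives have a fitted effect of over 65% in size; a mitochondrial uncoupler was the plate control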
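Readout is PINK1 immunofluorescence, quantified alongside mitochondrial, cell and nuclear markers by laser-scanning microplate cytometry. Cells from a stable line were exposed to compound titrations (5 concentrations) for 24 hours, with CCCP controls.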
Six1-Eya2 inh: blocks human Six1 binding to Eya2; Q15475+O00167; activity change, % (no concentration beside the values); AlphaScreen GST-Six1/His-Eya2 binding, biochemical; hits give low values; control for the full effect not named in the record; 360,000 tested, 0.56% active; AID 651725; in the data active = activity change below about -65%; inconclusive = about -30% to -65%; inactive = above about -30%; further: on the % scale 0 is the no-effect control and ±100 the full control effect; compound concentration not given in the record
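Homogeneous AlphaScreen proximity assay pairing GST-Six1 with His-tagged Eya2 (added as 5X mix: 250 nM and 500 nM) in 50 mM Tris pH 8.0, 300 mM NaCl, 1 mM TCEP. Glutathione donor and nickel acceptor beads; 1 h, 37 °C, dark.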
Starred values were filed as active, the others as inactive; ? = inconclusive; . = not tested or not shown; & = joins results of further samples; [ ] = another dose, or the depositor's remark. This is a random part of the collection; any-hit rate near 1%.

Below each compound: TRPML1 blocker, Six1-Eya2 inh, D2 agonist, CtBP-E1A inh, PINK1 expr mod, TRPML1 ag
> COc1ccc(CCNC(=O)c2cc3c(=O)n4cccc(C)c4nc3n(CCCN3CCOCC3)c2=N)cc1
  0, 0, -2.4, 56, 2.4%, 0.8
> COCCN(C(=O)c1csnn1)C(C(=O)NC1CCCCC1)c1cccs1 (stereo unspecified)
  19, 1, -2.4, 10, 0.6%, -0.1
> N#CCCN(C(=O)COC(=O)c1ccc2c(=O)n3c(nc2c1)CCC3)c1ccccc1
  6, -5, -0.4, -1, 0.2%, 1.5
> O=C(Nc1cccc(Cl)c1)C1CC1c1ccccc1 (stereo unspecified)
  -13, 8, -3.7, -14, 0.3%, 2.7
> CC(=O)Nc1ccc(NC(=O)C(C)OC(=O)C2CCC2)cc1 (stereo unspecified)
  33, 7, -3.9, 4, -1.0%, 0.6
> CC(C)(C)NC(=O)c1ccc2c(c1)C(=O)N(C1CCCCC1)C2=O
  4, 4, 1.9, -2, -1.6%, -0.8
> O=C(NCc1ccccc1CN1CCOCC1)c1ccc(-n2cccn2)cc1
  -6, -2, 2.1, -2, -0.2%, 2.6
> COc1cc(/C=N/N2CCN(Cc3ccc(Cl)cc3)CC2)ccc1OC(C)=O
  -4, -8, -3.1, ., 1.2%, -0.3
> CN(c1cccc(NC(=O)c2ccc(N(C)S(=O)(=O)c3ccccc3)cc2)c1)S(C)(=O)=O
  -8, -4, ?, ., 0.0%, 0.4
> CC(=O)N1c2ccc(S(=O)(=O)NCCC(=O)Nc3ccc(F)cc3C)cc2CC1C (stereo unspecified)
  -13, 2, -3.7, -3, -1.4%, -0.3
> CCOC(=O)C1CCN(C(=O)C2CCN(c3nc4ccc(OC)cc4s3)CC2)CC1
  -8, 2, -2.3, -4, -2.5%, -0.6
> CN1C(=O)CON=C1c1cccc2ccccc12
  ., -4, -2.6, 4, 1.8%, -0.9
> O=C(Nc1c2c(nn1-c1ccc(Cl)cc1)CS(=O)(=O)C2)c1ccccc1F
  6, ., ., ., -2.9%, 0.3
> CCn1c(=S)sc2c(=O)n(-c3ccccc3)c(SC)nc21
  7, -12, 1.2, -8, 6.8%[38.3 µM], 2.3
> COc1ccc(C2c3c(oc4ccc(Cl)cc4c3=O)C(=O)N2CCCN(C)C)cc1OC (stereo unspecified)
  32, ., ., ., -1.8%, 5.6
> Cc1ccccc1NC(=O)C1Cc2ccccc2C(=O)O1 (stereo unspecified)
  -12, 2, 0.2, 5, -1.2%, 0.9
> CCN(CC(=O)Nc1ccc(OC)cc1)C(=O)C1CCN(C(=O)c2ccc(Cl)cc2)CC1
  -7, 2, 5.5, -6, 1.3%, 3.0
> COc1ccc2oc(C(=O)OCC(=O)/C(C#N)=C(\C)N)c(C)c2c1
  ?, 8, 3.0, ., ?, -0.2
> CC1CCCCC1NC(=O)COC(=O)c1cccn1C (stereo unspecified)
  1, 8, -5.9, ., -0.6%, -0.3
> OCCN1CCN(CC(O)COCc2ccc3c(c2)OCO3)CC1 (stereo unspecified)
  -8, 8, -0.3, -2, -2.8%, -0.6
> CC1=C(C)C(=O)N(c2ccccn2)C1=O
  -12, 4, 0.8, 0, -1.2%, -0.4
> C/C(=N\NC(=O)CSCc1ccc(Cl)cc1)c1ccc2c(c1)OCCO2
  -2, -4, -1.6, -12, -1.8%, 9.6
> C=CCn1c(SCCC)nc2sc3c(c2c1=O)CCc1ccccc1-3
  9, 2, -0.1, -12, 7.6%, 1.2
> CCOc1ccc(N/C=C/C(=O)c2ccc(OC)c(OC)c2)cc1
  -16, 3, -2.3, ., 2.5%, -0.2
> CCN(CC)c1ccc(C=Nc2ccc(N(C)C)cc2)c(O)c1
  2, ?, 8.8, ?, -1.1%, 2.9
> CN(CC(=O)Nc1ccccc1Br)C(=O)CNC(=O)c1ccc(Oc2ccccc2)cc1
  7, -15, -1.6, 0, 1.1%, 2.4
> CC(C)c1ccc(NC(=O)c2cc3c(=O)n(C)c4ccccc4c3n2C)cc1
  19, -2, -2.1, 3, 2.9%, 1.9
> O=C(CCSCc1cccc(Cl)c1)NCc1ccc(F)cc1Cl
  1, ., ., ., 1.1%, -0.3
> CS(=O)(=O)c1ccc(C(=O)OCC(=O)NC2CCS(=O)(=O)C2)cc1[N+](=O)[O-] (stereo unspecified)
  -2, 13, ?, 7, -1.3%, 0.5
> CCOc1ccc(-c2cc(NC(=O)Cn3ncc4c3-c3ccccc3OC4)on2)cc1OCC
  -20, 1, 3.9, 3, 0.2%, 0.1
> Cc1cc(C)c(-c2cc(C(F)(F)F)no2)c(=O)[nH]1
  -2, 4, 2.5, 10, -1.0%[38.3 µM], -0.5
> NC(=O)c1nc(N2CCOCC2)nc(N2CCOCC2)n1
  -2, -1, -3.6, 0, -1.2%, -0.3
> Cc1ccc(S(=O)(=O)NCCCNS(=O)(=O)c2ccccc2)cc1
  ., 0, 0.8, ., -0.2%, .
> CCOC(=O)N1CCC(NC(=O)c2cc(S(=O)(=O)N3CCCC3)cn2C)CC1
  -12, 3, 0.1, -14, -2.2%, -0.1
> O=C(Cc1cccs1)N(CC1CCCO1)C1(C(=O)NC2CCCC2)CCCCC1 (stereo unspecified)
  -10, -1, 1.6, -4, 2.0%, 0.1
> CCOC(=O)CSc1nc(CC)nc2ccccc12
  -4, 4, 0.6, 10, ., 0.9
> CC(NC(=O)c1ccc2nc(Cc3ccccc3)oc2c1)c1ccccc1 (stereo unspecified)
  -24, ., ., ., -0.3%, 1.9
> COCc1cc(=O)[nH]c(Nc2nc(C)c3ccccc3n2)n1
  0, -1, 0.1, -9, -1.4%, -0.6
> CCOc1ccc(-c2cc3nc(C4CCN(C(=O)OC(C)(C)C)CC4)c(C(=O)Nc4ccc(C(=O)OC)cc4)cn3n2)cc1
  6, ., ., ., 3.6%, 0.9
> CCN1CCN(c2nc3c(C)cccn3c(=O)c2/C=C(\C#N)C(=O)NCCCOC)CC1
  17, -1, 5.1, 4, 0.0%, 0.9
> CN(C)C(=S)Oc1ccccc1C1(C)OCCO1
  -7, 1, 1.1, 1, 0.0%, -0.3
> Clc1ccc(Cl)c(-c2nc(-c3ccncc3)no2)c1
  0, 1, 3.8, 6, -0.6%, -0.1
> COc1cccc(NC(=O)c2oc3ccc(S(=O)(=O)N4CCCCCC4)cc3c2C)c1
  43, ., ., ., -2.0%, -0.1
> C=CCNC(=O)CSCc1ccc(Br)cc1
  -3, 6, -3.3, 7, -0.7%, 5.1
> CC(=O)Nc1cccc(NC(=O)C2CC3CCC2C3)c1 (stereo unspecified)
  25, 7, 0.2, 3, -1.6%[38.3 µM], 0.3
> CN1CCN(NC(=O)COc2cccc(C(F)(F)F)c2)CC1
  -1, 12, -4.7, 23, -1.6%, 0.4
> CCCc1cc2c(=O)c(-c3ccc4c(c3)OCCO4)coc2cc1OS(C)(=O)=O
  -11, -5, 3.1, 2, -2.3%, 0.6
> COc1ccc(/C=C/c2nnc(NC(=O)COc3cccc(C)c3)s2)cc1
  18, 14, 2.4, 2, 8.1%, -0.1
> O=C(CN1C(=O)C2C3C=CC(C3)C2C1=O)OCC(=O)c1ccccc1 (stereo unspecified)
  -6, 18, -6.2, -4, 1.3%, -0.2
> CCNC(=O)Cn1c(-c2cccs2)cc2ccccc21
  -13, ., ., ., -1.3%, -0.3
> O=C(NCC1CC1)c1csc([C@@H]2O[C@H](CO)[C@H](O)[C@H](O)[C@H]2O)n1
  ., 3, -4.3, 5, 0.1%, -0.6
> COc1cccc(/C=N/NC(=O)c2ccc(COc3ccc(Cl)cc3Cl)o2)c1
  7, -4, 3.5, 0, 19%, 0.5
> CC(C)CNC(=O)c1cc(-c2ccc(Br)cc2)on1
  8, 3, -3.5, 10, 5.4%[38.3 µM], 0.2
> COc1ccc(CCN(C)CC(O)COC(c2ccc(F)cc2)c2ccc(F)cc2)cc1OC (stereo unspecified)
  8, -13, -4.2, -11, 1.9%, 2.8
> COc1ccccc1OCCC(=O)Nc1cccc(S(=O)(=O)N2CCCCC2)c1
  34, -3, 2.9, -3, 2.3%, 0.6
> CCC/C=C1/CCCOC(C(=O)NCc2cc(C)n(C)n2)(C(F)(F)F)C1 (stereo unspecified)
  22&-9, 5, -5.6, ., 0.2%, -0.1&1.2
> O=C(Nc1nnc([C@H]2C[C@H](O)[C@@H](CO)O2)s1)c1ccc(Oc2ccccc2)cc1
  ., 1, -3.6, -5, 1.9%, -0.6
> CC1(c2ccc(O)cc2)NC(=O)N(c2ccccc2)N1 (stereo unspecified)
  7, -3, -2.6, 5, 1.7%, -0.5
> O=C(CSc1nnc2ccccn12)Nc1ncc(Cl)cc1Cl
  4, 7, -2.3, 3, 6.2%[38.3 µM], -0.4
> Cc1ccc(OCC(=O)Nc2ccc3c(c2)nc(CCN2CCC(C)CC2)n3C)cc1
  -15, -1, -4.6, -12, 2.4%, -0.9

Some of the entries above in a different format.
structure | TRPML1 blocker | Six1-Eya2 inh | D2 agonist | CtBP-E1A inh | PINK1 expr mod | TRPML1 ag
COc1ccc(CCN(C)CC(O)COC(c2ccc(F)cc2)c2ccc(F)cc2)cc1OC (stereo unspecified) | 8 | -13 | -4.2 | -11 | 1.9% | 2.8
COc1ccccc1OCCC(=O)Nc1cccc(S(=O)(=O)N2CCCCC2)c1 | 34 | -3 | 2.9 | -3 | 2.3% | 0.6

(list continues)
Below each compound: TRPML1 blocker, Six1-Eya2 inh, D2 agonist, CtBP-E1A inh, PINK1 expr mod, TRPML1 ag
> Nc1nc(SCC(=O)Nc2ccccc2C(F)(F)F)[nH]c(=O)c1-c1ccccc1
  -4, -2, -5.9, -4, -1.7%, 0.8
> CC1CCN(C(=O)C2CCN(C(=O)c3ccc(C(C)(C)C)cc3)CC2)CC1
  28, 4, -2.8, 6, -1.6%, 0.0
> CCS(=O)(=O)c1cccc(C(=O)N2CCN(c3nc4c(C)ccc(Cl)c4s3)CC2)c1
  2, ., ., ., 3.3%, 1.8
> CC1CCCN(C(=O)CCCC(=O)N2CCCC(C)C2)C1 (stereo unspecified)
  15, 6, 4.8, 0, -0.7%, -0.3
> CSCCC(NC(=O)c1ccc([N+](=O)[O-])cc1Cl)C(=O)OCC(=O)N1CCN(C(C)=O)CC1 (stereo unspecified)
  3, 1, 3.6, 3, 0.3%, -0.3
